# High-throughput results from PubChem.
# RE007 growth inh – qHTS Assay for Inhibitors of the HIV-1 protein Vpr; S. pombe RE007 Vpr strain, BacTiter-Glo ATP luminescence, 24 h; control for the full effect not named in the record; Potency, µM (top dose mostly 92.2 µM), inactives show at the top dose activity change, negative = less growth; 360,000 tested, 0.21% active; AID 651644, 2012; active = well fitted falling curve with a large enough effect; inconclusive = small, poorly fitted or top-dose-only effect; inactive = no such curve, though single readings can be large or run the other way;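 note: % is set by controls: 0 for no effect and ±100 for the full control effect; nearly all actives have a fitted effect of over 50% in size; the assay follows cell death caused by Vpr and the record does not say whether a fall means rescue or toxicity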
#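 Fission yeast RE007 carrying one integrated HIV-1 vpr copy, seeded at OD 0.01 in PMG+AL medium with 23 nL pinned compound. Grown 24 h at 30 degrees; viability read by BacTiter-Glo luminescence after 5 min.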
# Cruzain noTriton – qHTS Assay for Promiscuous and Specific Inhibitors of Cruzain (without detergent); 200,000 tested, 2.3% active; purified cruzain, Z-FR-AMC fluorescence, no detergent; Potency, µM, inactives show max response, negative = inhibition, most hits filed as inhibitors; Cruzipain (Trypanosoma cruzi), P25779; active = well fitted curve in the direction sought with a large enough effect; inconclusive = small, poorly fitted or top-dose-only effect, or another doubt; inactive = no such curve, though single readings can be large; an effect the other way counts as inactive or inconclusive;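 note: plate controls were enzyme without inhibitor for no effect and buffer without enzyme for full effect; nearly all actives have a fitted effect of over 40% in size; top concentration of the series not given in the record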
# Target sequence (P25779 123-467 limits assumed): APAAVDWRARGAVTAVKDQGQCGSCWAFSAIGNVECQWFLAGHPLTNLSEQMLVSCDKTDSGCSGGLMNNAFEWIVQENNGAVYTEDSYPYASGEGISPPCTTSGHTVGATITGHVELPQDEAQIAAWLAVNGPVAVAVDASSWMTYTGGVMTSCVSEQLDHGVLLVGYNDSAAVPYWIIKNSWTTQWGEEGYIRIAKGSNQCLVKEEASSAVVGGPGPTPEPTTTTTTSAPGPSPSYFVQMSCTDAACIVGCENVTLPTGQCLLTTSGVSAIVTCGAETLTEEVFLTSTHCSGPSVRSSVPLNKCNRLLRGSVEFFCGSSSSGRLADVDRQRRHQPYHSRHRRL
#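 Detergent-free condition (0.00005% Triton X-100) in acetate buffer pH 5.5 with DTT. 1.5 nM enzyme and compound were pre-mixed 15 min, then 2 uM Z-FR-AMC substrate added; reaction progress from fluorescence change between first and third reads (60 s).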
# SARS PLpro yeast – qHTS of Yeast-based Assay for SARS-CoV PLP; Potency, µM (doses to about 32.9 µM), for the others: top-dose activity, positive = growth rescue; 330,000 tested, 0.19% active; AID 485353, 2010; S. cerevisiae expressing SARS-CoV PLpro, growth rescue; control for the full effect not named in the record; note: 0% is about no effect; nearly all actives have a fitted effect of over 55% in size; growth read by luminescence after 48 h
# Cruzain inh Det – qHTS Assay for Promiscuous and Specific Inhibitors of Cruzain (with detergent); Potency, µM, for the others: max response, negative = inhibition, most hits filed as inhibitors; 200,000 tested, 0.43% active; Cruzipain (Trypanosoma cruzi), P25779; AID 1478, 2009; purified cruzain, Z-FR-AMC fluorescence, 0.01% Triton; active = well fitted curve in the direction sought with a large enough effect; inconclusive = small, poorly fitted or top-dose-only effect, or another doubt; inactive = no such curve, though single readings can be large; an effect the other way counts as inactive or inconclusive;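 note: plate controls were neutral wells for no effect and buffer without enzyme for full effect; nearly all actives have a fitted effect of over 40% in size; top concentration of the series not given in the record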
#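 Steps: dispense cruzain (1.5 nM final) in acetate buffer pH 5.5 with DTT and 0.01% Triton X-100; pin-transfer compounds; incubate 15 min RT; add Z-FR-AMC (2 uM final); read fluorescence every 30 s, using the 60 s intensity change.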
# StopGo reporter – High Throughput Screening for Foot and Mouth Disease Virus Antivirals; human cells with a luciferase reporter of 2A StopGo recoding; control for the full effect not named in the record; Potency, µM (series often up to 57.9 µM), for inactives: top-dose signal change, negative = less light; 410,000 tested, 1.2% active; AID 1159524, 2015; active = well fitted falling curve with a large enough effect; inconclusive = small, poorly fitted or top-dose-only effect; inactive = no such curve, though single readings can be large or run the other way; tested in HEK293T cells; note: % is set by controls: 0 for no effect and ±100 for the full control effect; nearly all actives have a fitted effect of over 45% in size; luciferase light after 4 h
# NS1 function inh – qHTS Assay for Inhibitors of Influenza NS1 Protein Function. S. cerevisiae slowed by influenza A NS1, growth recovery by OD600. Potency, µM (doses to about 46.1 µM), inactives show at the highest dose activity, positive = more growth. 270,000 tested, 0.4% active. AID 2326, 2010; note: actives are rising curves; nearly all actives have a fitted effect of over 50% in size
#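 Compounds were scored for reversing the slow growth caused by influenza A NS1 in S. cerevisiae, measured by optical density at 600 nm. Assay medium contained 2% galactose at pH 6.0; NS1-free yeast of the same strain were the positive control.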
# Marburg entry inh – qHTS for inhibitors of binding or entry into cells for Marburg Virus. Marburg virus pseudotyped entry inhibition, cell reporter; control for the full effect not named in the record; about a third of the inactives were read at about 46 µM. Potency, µM (highest dose often 37.8 µM), for inactives: at the top dose activity change, negative = inhibition, hits mostly inhibitors. 300,000 tested, 1.8% active; active = well fitted inhibition curve with a large enough effect; inconclusive = small, poorly fitted or top-dose-only effect, or effect the other way; inactive = flat fitted curve, though single readings scatter; tested in HEK293 cells; about a fifth of its hits are not listed in these tables; note: % is set by controls: 0 for no effect and ±100 for the full control effect; luciferase read-out
# LASV entry inh – qHTS for Inhibitors of binding or entry into cells for Lassa Virus. Potency, µM (titrated, usually from 37.9 µM), without a hit: top-dose activity change, negative = inhibition, most hits filed as inhibitors. Lassa virus pseudotype entry inhibition, cell reporter; control for the full effect not named in the record. 300,000 tested, 1.2% active. AID 540256, 2011; active means well fitted inhibition curve with a large enough effect; inconclusive means small, poorly fitted or top-dose-only effect, or effect the other way; inactive means flat fitted curve, though single readings scatter; tested in HEK293 cells; note: % is set by controls: 0 for no effect and ±100 for the full control effect; nearly all actives have a fitted effect of over 50% in size; luciferase read-out
# * = called active by the depositor; ? = inconclusive; nt = not tested or not shown; & = joins results of further samples; [ ] = another dose, or the depositor's remark. Unless noted, calls come from the whole dose curve; as a rule, active means well fitted rising curve with a large enough effect; inconclusive means small, poorly fitted or top-dose-only effect; inactive means no such curve, though single readings can be large or run the other way. Potency is the fitted concentration of half-maximal effect.
# Screens in order – Cruzain noTriton, Cruzain inh Det, NS1 function inh, LASV entry inh, SARS PLpro yeast, Marburg entry inh, StopGo reporter, RE007 growth inh
- S=C1SCN(Cc2ccco2)CN1Cc1ccco1
  nt, nt, -63.8%, ?, -6.7%, ?, 0.6%, 35.5µM*
- CC1CCc2c(sc(NC(=O)c3cc(-c4cccc(Cl)c4)on3)c2C(N)=O)C1 (stereo not given)
  -6.5%, -4.6%, nt, 21.4%[46.1 µM], nt, -18.7%[46.1 µM], -17.6%, nt
- O=c1cc(CSc2ccc(Cl)cc2)nc(-c2ccncc2)[nH]1
  nt, nt, nt, 6.0%[46.1 µM], -1.0%, 4.2%[46.1 µM], -17.6%, 13.6%
- COc1ccc(OC)c(N(CC(=O)Nc2ccccc2)S(=O)(=O)c2ccccc2)c1
  nt, nt, 5.6%, nt, 2.2%, nt, 10.7%, 11.3%
- CCOC(=O)c1cc2sc(C)cc2n1CC(=O)N1CCc2ccccc21
  1.0%, 0.5%, 2.4%, -24.3%, 1.0%, 10.8%, nt, -0.7%
- CCC(=O)N1CCCn2c1nc1ccccc12
  4.1%, -2.7%, 5.2%, 16.5%, 14.7%, 15.5%, 14.2%, 7.4%
- O=C(COC(=O)C1C2CC3OC(=O)C1C3C2)Nc1ccc(Br)cc1 (stereo not given)
  nt, nt, -0.9%, 5.9%[46.1 µM], -1.3%, ?, 29.0%, -0.1%
- COc1ccc(C(=O)NC(=S)Nc2ccc(N3CCN(C(C)=O)CC3)cc2)cc1[N+](=O)[O-]
  nt, nt, 6.0%, -1.6%, 0.2%, 4.7%, -26.5%, 12.2%
- CCCc1cnc2c(c1SCC(=O)Nc1cccc(C)c1C)c(=O)n(C)c(=O)n2C
  -6.6%, 0.3%, nt, 2.3%[46.1 µM], nt, nt, -9.2%, nt
- COc1cc(OC)c(C(=O)OCCCOC(=O)c2cc(OC)c(OC)cc2OC)cc1OC
  nt, nt, -17.5%, ?, 3.1%, 25.6%, -17.0%, -4.8%
- Cc1cc(C(=O)N2CCN(C(=O)C3CCCO3)CC2)no1 (stereo not given)
  1.6%, 5.5%, -4.8%, 2.5%, 1.0%, 5.7%, 10.4%, 8.0%
- CCC(=O)OCc1cnc(C)c2oc(=O)c(C(=O)Nc3ccc(CC)cc3)cc12
  1.9%, 0.3%, nt, 5.4%[46.1 µM], nt, nt, -12.6%, nt
- COc1ccc(Cl)c(Cn2c(NCc3ccco3)nc3c2c(=O)n(C)c(=O)n3C)c1
  17.0%, -8.7%, -0.3%, 0.9%, 16.1%, -4.6%, ?, 11.6%
- COc1ccc2c(c1)CC(C1(O)C(=O)Nc3ccccc31)C2=O (stereo not given)
  1.1%, -0.6%, 5.0%, 22.6%, 0.8%, 14.2%, 58.8%[activator], 1.3%
- CCC(C)NC(=S)Nc1ccccc1 (stereo not given)
  nt, nt, -7.7%, 0.9%[46.1 µM], 2.7%, -2.1%[46.1 µM], 2.6%, -0.3%
- O=C(Nc1ccccc1CC[N+](=O)[O-])N1CCN(c2ccccc2)CC1
  nt, nt, nt, -2.1%, -0.5%, 10µM*, -7.9%, -3.3%
- Cc1ccc(OC(C)C(=O)Nc2ccc(S(=O)(=O)Nc3nccs3)cc2)cc1 (stereo not given)
  nt, nt, 5.7%, -25.1%, -1.0%, 2.8%, 32.0%[activator], -2.2%
- Cc1cccc(-c2nc(CSc3nc4c(c(=O)[nH]3)CCC4)c(C)o2)c1
  -2.8%, -3.8%, -26.3%, 10.3%, -12.1%, 10.2%, ?, 3.6%
- Cc1nn(C(=O)c2ccccc2F)c(C)c1S(=O)(=O)N1CCCCCC1
  -6.3%, -1.1%, nt, 9.7%[46.1 µM], nt, nt, -11.6%, nt
- Cc1ccc(CCNC(=O)Cn2ncc3c([nH]c4ccc(C)cc43)c2=O)cc1
  -13.7%, -1.2%, nt, 27.5%[46.1 µM], nt, nt, -0.4%, nt
- COC(=O)[C@@H](NC(=O)O[C@@H]1C(=O)c2cc(Br)ccc2O[C@H]1c1cccc(OC)c1)C(C)C
  -5.0%&-4.8%, -3.5%&-4.0%, -21.8%, ?, -10.2%, -5.6%[14.2 µM], nt, nt
- CCOc1ccccc1CNC(=O)c1ccc(NC(=O)C2=CSCCO2)cc1
  nt, nt, -13.3%, nt, 0.9%, nt, 11.0%, 3.8%
- O=C(Nc1ccccc1C(F)(F)F)C1CCCC1
  nt, nt, 6.7%, 0.7%, -2.4%, 11.5%, -11.0%, 1.4%
- COc1ccc(-c2ncncc2-c2csc(C)n2)c(O)c1
  -6.5%, 1.3%, 7.7%, 16.7%, -8.1%, 12.3%, 8.4%, -12.6%
- O=C(CCNC(=O)N1CC(=O)Nc2ccccc21)NCCc1cccc(F)c1
  nt, nt, -6.7%, nt, -2.0%, nt, 0.0%, 0.5%
- COc1ccc(N2CCCC2)c(NC(=O)c2ccc([N+](=O)[O-])o2)c1
  nt, nt, -15.5%, -9.3%, -16.2%, -16.8%[46.1 µM], ?, -26.1%
- O=C(NC1CC(=O)N(c2ccccc2)C1)c1cccs1 (stereo not given)
  2.6%, 0.5%, nt, 17.2%[46.1 µM], nt, nt, -16.1%, nt
- CCOC(=O)c1[nH]c(C)c(CN(CCc2ccccc2)S(C)(=O)=O)c1C
  -8.2%, -12.9%, -11.6%, nt, -8.0%, nt, -22.2%, 16.7%
- O=C(COc1ccc2ccc(=O)oc2c1)NCCc1c[nH]c2ccc(F)cc12
  nt, nt, -9.9%, nt, 0.7%, nt, ?, -11.3%
- CCCCn1c(=O)[nH]c(=O)c2c1nc(-c1ccc([N+](=O)[O-])cc1)n2CC
  nt, nt, 11.9%, ?, 3.7%, -1.3%[46.1 µM], 4.6%, -2.3%
- Cc1ccc(/C=[N+](/C)[O-])cc1
  nt, nt, nt, 17.0%[46.1 µM], -1.8%, 11.9%[46.1 µM], -10.7%, 5.0%
- NC(=O)c1nsc(C(=O)N(c2ccccc2)C(C(=O)NCc2ccc(F)cc2)c2ccco2)c1N (stereo not given)
  nt, nt, 12.2%, ?, 6.2%, ?, -17.5%, 12.1%
- CC(O)[C@H]1CNC(=O)C(=O)N1CCc1cccc2ccccc12 (stereo not given in full)
  nt, nt, -8.8%, nt, 7.4%, nt, -3.4%, -12.3%
- COc1cccc(NC(=O)CN(C)C(=O)CN2C(=O)NC(C)(c3ccc4ccccc4c3)C2=O)c1 (stereo not given)
  nt, nt, nt, 1.1%, -4.2%, -36.4%, -28.3%, 5.1%
- CCOc1ccccc1C1NC(=O)CCC1[N+](=O)[O-] (stereo not given)
  nt, nt, 5.0%, 18.4%, -1.3%, ?, -5.3%, 12.6%
- COC(=O)c1cccc(-n2c(CCC(=O)O)ccc2-c2ccc(OC)cc2)c1
  15.9%, -12.3%, nt, -1.8%[46.1 µM], nt, ?, -22.6%, nt
- CC(CCc1ccccc1)NC(=O)c1nnc(Cc2ccc(F)cc2)o1 (stereo not given)
  0.9%, 0.6%, -86.3%, 5.4%, 9.7%, 23.5%, -15.7%, -9.9%
- CCN1CCN(C(=O)/C=C/c2cccc(Cl)c2)CC1
  nt, nt, 13.5%, nt, 1.0%, nt, 7.0%, 3.0%
- O=C(NC1CCCC1)C(c1ccccn1)N(C(=O)c1csnn1)c1ccccc1 (stereo not given)
  nt, nt, 1.7%, 23.0%[46.1 µM], 1.2%, -2.8%[46.1 µM], -5.8%, 0.3%
- COc1ccc(-c2[nH]ncc2CN2CCCC(C(=O)c3ccc(OC)cc3OC)C2)cc1 (stereo not given)
  nt, nt, 0.2%, 14.1%, 0.2%, -11.2%[46.1 µM], -1.1%, -1.1%
- CCOc1cc(C2C(C(=O)OC)=C(C)NC3=C2C(=O)c2ccccc23)c(Br)cc1OC (stereo not given)
  ?, -6.0%, nt, -1.1%[46.1 µM], nt, -5.8%[46.1 µM], -8.2%, nt
- CC(CCc1ccccc1)NC(=O)Cc1ccc([N+](=O)[O-])cc1 (stereo not given)
  -7.5%, -4.9%, -16.1%, -10.0%, -8.3%, -17.8%, -29.6%, -2.7%
- Cc1n[nH]c(C)c1CN(C)C(=O)C1CCC(=O)N(CCc2cccc(F)c2)C1 (stereo not given)
  nt, nt, 5.9%, nt, 7.9%, nt, 5.6%, 6.2%
- COc1ccccc1C1C([N+](=O)[O-])=CC([N+](=O)[O-])=CN1C (stereo not given)
  -8.0%, -7.9%, -0.5%, -6.2%[46.1 µM], 11.4%, -4.7%[46.1 µM], -15.8%, -15.1%
- CC(C)CC(=O)Nc1ccnn1C1CCN(C(=O)c2ccc(F)cc2Cl)CC1
  nt, nt, 6.0%, 11.3%, -6.0%, ?, 16.2%, -4.4%
- CCOC(=O)c1cnn(-c2ccc(C(F)(F)F)cn2)c1N
  4.6%, -0.7%, -12.0%, ?, -3.9%, ?, 70.9%[activator], -17.9%
- CCCCNC(=O)CN1C(=O)COc2ccc(S(=O)(=O)N3CCCC3)cc21
  3.8%, 1.8%, nt, 8.2%[46.1 µM], nt, 1.2%[46.1 µM], -2.1%, nt
- CC(C)COc1ccc(/C(O)=C2/C(=O)C(=O)N(CCN(C)C)C2c2ccncc2)cc1 (stereo not given)
  -4.5%, -4.9%, -2.6%, -1.7%, -2.2%, 0.3%, -5.0%, 6.1%
- O=C(CN1CCOCC1)Nc1ccc2c(c1)OCO2
  nt, nt, nt, -1.2%, 3.6%, 0.0%, 5.6%, -9.3%
- CCOc1ccc(NC(=O)CCC(=O)Nc2cc(OC)c(NC(=O)c3ccco3)cc2OC)cc1
  nt, nt, 4.5%, -11.9%, 3.5%, -5.6%[46.1 µM], 5.1%, 13.0%
- COc1cc(OC)cc(C(=O)Nn2cnnc2)c1
  nt, nt, 4.1%, 2.6%, 0.6%, 18.6%, -2.5%, -2.1%

# Compounds were not picked by outcome; about 4.6% have a hit in one of these screens.
